Sa growth 42C: S. aureus growth inhibition at 42 and 30 °C, primary screen, LtaS inhibitor project, RN4220, two temperatures; relative growth, % (no concentration beside the values); AID 720641, 2013; OD600, 20 h, 42 °C; hits give low values; actives 0.53% (n = 170,000);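 active = growth at 42 °C up to 50% and 20 or more points under that at 30 °C, or under 10% at both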;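 note: 300 nL library stock went into each well; scaled to the means of positive and negative controls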
HCMV UL50-53 inh: inhibitors of HCMV UL50-UL53 interaction, biochemical, HTRF. normalized percent inhibition. inhibition, % (no concentration beside the values). actives 0.15% (n = 190,000). AID 1918969, 2023;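 active = both replicates at 50% or more, plus weaker picks with an unusually low signal ratio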;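 note: stock transfer was 100 nL into about 20 µL; 0% = negative control wells and 100% = wells with untagged competitor protein; inactives centre near -12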
GIV Gai3 FP: inhibitors of GIV peptide binding to Galpha-i3, primary screen, biochemical, fluorescence polarization, FITC-GIV GBA peptide, rat Galphai3. 90 min; hits give low values; scaled: aluminum fluoride 0%, vehicle 100%. percent of control (FP), % (test concentration not listed). actives 0.42% (n = 210,000). AID 1224905, 2016;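 active = replicate mean at 85% of control or lower, very high polarization wells dropped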;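 note: wells of about 15 µL received 100 nL stock; the first replicate is given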
Target sequence (P08753 whole entry, looked up): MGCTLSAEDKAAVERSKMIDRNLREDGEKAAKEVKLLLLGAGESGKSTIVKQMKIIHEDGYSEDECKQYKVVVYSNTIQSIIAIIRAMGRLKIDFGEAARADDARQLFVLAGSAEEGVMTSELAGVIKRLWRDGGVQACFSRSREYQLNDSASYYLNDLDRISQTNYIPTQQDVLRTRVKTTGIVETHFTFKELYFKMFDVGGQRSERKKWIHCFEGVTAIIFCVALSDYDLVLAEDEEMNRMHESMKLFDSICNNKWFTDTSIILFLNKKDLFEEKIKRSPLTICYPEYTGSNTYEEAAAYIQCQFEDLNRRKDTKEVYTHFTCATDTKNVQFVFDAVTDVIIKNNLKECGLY
Sa growth 42C second temp: second read-out of Sa growth 42C, no call of its own (marks repeat the call); relative growth, %; measured here: growth at 30 °C;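 optical density after 20 h as mean of two plates; 100% = untreated growth and lower means inhibition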
* marks the source's active call; other numbers are inactive results; · = no result given. Compounds as they come; 0.85% or so of the library scored in one or more.

SMILES	Sa growth 42C	Sa growth 42C second temp	HCMV UL50-53 inh	GIV Gai3 FP
Cc1cc(N(C(=O)c2cnccn2)C(C(=O)NCc2ccccc2)c2cccs2)ccc1-n1cnnn1 (stereo not given)	118.6	88.5	-12.4	106.1
NC(=O)Cn1c(=O)n(Cc2ccco2)c(=O)c2ccccc21	121.3	89.6	1.8	99.1
Clc1cc(Cl)cc(-c2ccc(CNCc3cccnc3)o2)c1	·	·	-17.4	103.0
CC(C)CNc1cc(Cl)c2noc3c2c1C(=O)c1ccccc1-3	81.5	85.9	·	-54.6*
CCCNC(=O)N1CCn2cccc2C1C (stereo not given)	105.1	96.5	-13.2	101.9
COc1ccc(-n2nc(C(=O)Nc3ccc(OC)c(OC)c3)c(=O)n(C)c2=O)cc1	·	·	-62.4	100.1
Nc1cc(N)nc(Sc2ncnc3ccccc23)n1	96.9	87.3	-13.7	105.1
CC(C)(CNS(=O)(=O)c1ccc2ccccc2c1)N1CCOCC1	81.1	88.5	-20.1	·
CC(C)CNC(=O)c1ccc2snnc2c1	108.7	99.8	-9.6	112.7
O=S(=O)(c1ccccc1)c1nc(-c2ccc(Cl)cc2Cl)oc1N1CCCCC1	91.9	83.7	·	108.0
O=c1[nH]cnc2nn(-c3ccccc3)nc12	114.1	74.5	-12.0	·
CC(NS(=O)(=O)c1cccc(C(F)(F)F)c1)C(C)(C)C (stereo not given)	109.9	84.0	-19.1	100.3
O=C(CSc1nnc2ccccn12)NCc1ccco1	·	·	-14.9	102.4
CCOC(=O)COc1ccc2c(=O)c(-c3ccc(OC)c(OC)c3)c(C(F)(F)F)oc2c1	·	·	-10.4	102.3
Cc1c(F)cccc1NC(=O)c1cc(=O)n(C)c(=O)n1C	76.9	77.3	-28.4	98.1
O=C(C1CCCCC1)N(Cc1nc2sc3c(c2c(=O)[nH]1)CCCC3)Cc1cccs1	93.5	102.3	-24.5	98.5
COc1ccc(C(=O)OC2CCCCC2=O)cc1OC (stereo not given)	97.9	90.4	-26.1	·
Cn1nc(C(=O)NCc2cccc(Cl)c2)c2c1-c1ccccc1SC2	106.2	90.8	-26.6	100.6
O=C(Nc1ccc(Cl)cc1)C1CCC(=O)N1S(=O)(=O)c1ccc(F)cc1 (stereo not given)	·	·	-8.3	104.6
Cc1ccccc1NS(=O)(=O)c1ccc2[nH]c3c(c2c1)CCCCC3	88.0	80.1	·	103.7
Cc1cc(COC(=O)c2ccc3ncsc3c2)no1	81.3	86.2	-27.6	·
CCC1=C(c2ccc(C)cc2)S(=O)(=O)N=C1N1CCC(C(=O)NCc2ccc(C)cc2)CC1	102.3	83.0	-38.4	98.6
COc1ccc(-c2nn(C)c3sc(C(=O)N4CCN(c5ccccc5F)CC4)cc23)cc1OC	102.9	94.0	-26.9	106.8
O=C(Cn1ccc2ccccc2c1=O)NCCC(=O)N1CCN(c2cccc(Cl)c2)CC1	102.0	71.9	-16.9	100.2
COC(=O)c1ccccc1NC(=O)c1ccc2nc(Cc3ccccc3)oc2c1	78.9	89.2	·	100.1
Additional results follow.
SMILES	Sa growth 42C	Sa growth 42C second temp	HCMV UL50-53 inh	GIV Gai3 FP
O=c1oc2cc(O)ccc2cc1-c1nnc(Nc2ccccc2F)s1	103.6	87.0	-39.0	230.5
COC(=O)Cn1c(=S)[nH]c2ccccc2c1=O	102.3	96.8	-26.0	·
CCN=c1scc(-c2ccc(F)cc2)n1/N=C(\C)CC(C)C	83.9	90.9	-23.9	·
CCOC(=O)C1C(=O)C=C(c2ccco2)CC1c1ccc(F)cc1 (stereo not given)	72.8	82.4	-37.7	102.8
CC(NC(=O)C1CC1(C)C)c1ccccc1 (stereo not given)	87.0	88.9	11.2	107.9
COc1cc(/C=C2\C(=N)N3N=C(C)SC3=NC2=O)cc(Cl)c1OCCOc1ccc(NC(C)=O)cc1	101.2	85.1	-15.1	104.5
COc1ccc(-n2nnc(C(=O)Nc3ccc(S(N)(=O)=O)cc3)c2C)cc1	·	·	-23.4	98.6
COc1ccccc1C(=O)Nc1ccc(NC(=O)c2ccccc2)nc1	111.4	76.7	-12.4	104.6
CC(=O)c1cccc(NC(=O)CCS(=O)(=O)c2cc3c(cc2C)NC(=O)CO3)c1	112.8	101.1	·	104.1
CCCCN(C(=O)c1cccc(S(=O)(=O)N2CCCCC2)c1)C1CCS(=O)(=O)C1 (stereo not given)	105.4	100.1	·	102.8
COc1ccc(S(=O)(=O)N(CC(=O)NCc2ccncc2)c2ccc(C)cc2)cc1Br	·	·	-6.1	101.6
Cc1ccc2nc(Cl)c(CC3CC(c4ccccc4)=NN3C(=O)CCCC(=O)O)cc2c1 (stereo not given)	90.7	93.0	·	99.1
COc1cccc(N2C(=O)C(CC(=O)Nc3ccc(F)cc3)N(CCC3=CCCCC3)C2=O)c1 (stereo not given)	102.2	83.3	-10.3	99.4
CC(C)NC(=O)Cn1cnc2c1c(=O)n(C)c(=O)n2C	115.0	90.5	-2.4	98.3
COc1ccc(OC)c(-n2c(-c3cc(-c4ccco4)[nH]n3)n[nH]c2=S)c1	85.5	52.3	-7.1	101.5
O=C1NC(=O)c2cc(S(=O)(=O)N(CCO)CCO)cc3cccc1c23	103.3	95.3	-147.2	102.0
COc1ccc(NC(=O)c2cc3c(=O)n(Cc4ccco4)ccc3nc2C)c(OC)c1	83.8	87.1	·	103.7
CCN(Cc1ccccc1)S(=O)(=O)c1ccc(-c2cc(C(F)(F)F)no2)s1	96.0	105.6	6.9	104.2
CCOC(=O)c1nc(N)c(=O)n(-c2ccc(C(=O)O)cc2)n1	112.8	92.5	-17.1	·
CNC(=O)c1c(NC(=O)/C=C/c2ccccc2)sc2c1CCC2	86.5	90.9	·	100.7
Cc1ccc(C(=O)NC(C)C)cc1C	94.2	97.3	-42.5	101.1
CCN(CC)S(=O)(=O)c1ccc(/C=C/C(=O)N=c2sccn2C)cc1	94.6	96.1	-49.4	·
Cc1cccc(-n2c(=O)c3c(c4cc(C)ccc4n3C)n(CC(=O)NCCC3=CCCCC3)c2=O)c1	98.0	86.9	·	103.6
COc1ccc(/C=C(\NC(=O)c2ccccc2)C(=O)N2CCN(C)CC2)cc1	101.3	97.5	-0.9	108.3
O=C(CNC(=O)c1ccc(Br)o1)NC1CCCc2ccccc21 (stereo not given)	91.1	91.0	15.8	·
Next section:
SMILES	Sa growth 42C	Sa growth 42C second temp	HCMV UL50-53 inh	GIV Gai3 FP
CCc1ccc(NC(=O)C(Cc2ccccc2)NS(=O)(=O)c2ccc3c(c2)c(=O)n(C)c(=O)n3C)cc1 (stereo not given)	114.9	83.2	-25.9	103.4
CCC(C)n1nnc2cc(S(=O)(=O)N(C)CC(=O)NCc3cccnc3)ccc21 (stereo not given)	·	·	-0.1	107.8
CCOc1ccc2c(c1)C1C=CCC1C(c1ccc(C(=O)OC)cc1)N2 (stereo not given)	90.5	94.0	-13.0	·
CN(CC(=O)N1CCN(c2cccc(Cl)c2)CC1)S(=O)(=O)c1c[nH]c(C(=O)N2CCCC2)c1	·	·	-1.4	107.1
Cc1nc2ccc(S(=O)(=O)CCC(=O)NCCc3ccccc3)cc2s1	·	·	21.2	100.0
CCOC(=O)c1c(-c2cccs2)csc1NC(=O)CSc1nncn1C	83.0	87.3	-6.9	·
COc1cc2ncc(C#N)c(Nc3cc(OC)c(OC)c(OC)c3)c2cc1OC	·	·	-22.3	104.1
CCOC(=O)c1c(C)[nH]c(C)c1S(=O)(=O)NCC(=O)Nc1ccc(CC)cc1	96.8	85.1	·	106.6
CCCn1cnc2cc(NCc3ccccc3O)ccc21	98.2	89.2	·	109.6
CCOC(=O)COc1ccc(-c2nn[nH]n2)cc1	88.2	79.8	-12.5	·
O=C(Nc1ccccc1)Nc1nc(CC(=O)N2CCN(c3ccccc3Cl)CC2)cs1	·	·	-4.9	106.9
O=C(NC(=S)NCc1cccs1)c1cccs1	100.1	97.9	1.9	98.7
Cc1ccc(NC(=O)c2nc(S(C)(=O)=O)ncc2N(Cc2ccc(C(C)(C)C)cc2)Cc2ccco2)cc1C	94.7	94.5	-20.0	98.9
Cc1ccc(-n2ncc(C(=O)NCCN3CCN(C)CC3)c2C2CCN(C(=O)OC(C)(C)C)CC2)c(C)c1	99.8	86.7	·	100.9
CN(Cc1ccccc1)S(=O)(=O)c1cc2c3c(c1)CCN3C(=O)CC2	93.7	86.5	-26.7	99.7
Cc1ccc(NC(=O)CC2SC(=NC3CCCC3)NC2=O)cc1Cl (stereo not given)	87.0	88.1	-31.2	·
CNC(=O)c1cnc2c(c(C)nn2-c2ccccc2)c1Cl	91.0	91.4	-11.7	103.5
c1ccc2c(c1)NC(CN1CCOCC1)CO2 (stereo not given)	101.6	89.7	-3.3	·
Cc1ccc(CNC(=O)CCc2c(C)nc3c4c(C)cc(C)nc4nn3c2C)cc1	109.8	95.3	5.9	100.6
CCc1ccc(OC(C)C(=O)Nc2noc(-c3ccc(Cl)cc3)n2)cc1 (stereo not given)	·	·	-6.4	102.4
COC(=O)c1ccc2c(c1)N(CC(=O)N1CCOc3ccc(C)cc31)C(=O)CS2	117.7	80.4	·	99.7
CC(C)(C)OC(=O)N1CCOCCN(C(=O)OC(C)(C)C)CCOCC1	99.5	89.7	-2.4	100.9
Cc1c(Cl)cccc1NC(=O)Nc1ccc2snnc2c1	81.5	34.9	-11.5	110.2
COc1ccc(-c2nn(CCC(=O)O)c3nc(C)cc(C)c23)c(OC)c1	92.2	101.2	·	107.0
CCC1CN(C(=O)NCc2ccc(F)cc2)c2ccccc2O1 (stereo not given)	101.9	78.6	-12.3	107.0

Gathered by group: the entries above with an aryl methoxy group
SMILES	Sa growth 42C	Sa growth 42C second temp	HCMV UL50-53 inh	GIV Gai3 FP
COc1ccc(-n2nc(C(=O)Nc3ccc(OC)c(OC)c3)c(=O)n(C)c2=O)cc1	·	·	-62.4	100.1
CCOC(=O)COc1ccc2c(=O)c(-c3ccc(OC)c(OC)c3)c(C(F)(F)F)oc2c1	·	·	-10.4	102.3
COc1ccc(C(=O)OC2CCCCC2=O)cc1OC (stereo not given)	97.9	90.4	-26.1	·
COc1ccc(-c2nn(C)c3sc(C(=O)N4CCN(c5ccccc5F)CC4)cc23)cc1OC	102.9	94.0	-26.9	106.8
COc1cc(/C=C2\C(=N)N3N=C(C)SC3=NC2=O)cc(Cl)c1OCCOc1ccc(NC(C)=O)cc1	101.2	85.1	-15.1	104.5
COc1ccc(-n2nnc(C(=O)Nc3ccc(S(N)(=O)=O)cc3)c2C)cc1	·	·	-23.4	98.6
COc1ccccc1C(=O)Nc1ccc(NC(=O)c2ccccc2)nc1	111.4	76.7	-12.4	104.6
COc1ccc(S(=O)(=O)N(CC(=O)NCc2ccncc2)c2ccc(C)cc2)cc1Br	·	·	-6.1	101.6
COc1cccc(N2C(=O)C(CC(=O)Nc3ccc(F)cc3)N(CCC3=CCCCC3)C2=O)c1 (stereo not given)	102.2	83.3	-10.3	99.4
COc1ccc(OC)c(-n2c(-c3cc(-c4ccco4)[nH]n3)n[nH]c2=S)c1	85.5	52.3	-7.1	101.5
COc1ccc(NC(=O)c2cc3c(=O)n(Cc4ccco4)ccc3nc2C)c(OC)c1	83.8	87.1	·	103.7
COc1ccc(/C=C(\NC(=O)c2ccccc2)C(=O)N2CCN(C)CC2)cc1	101.3	97.5	-0.9	108.3
COc1cc2ncc(C#N)c(Nc3cc(OC)c(OC)c(OC)c3)c2cc1OC	·	·	-22.3	104.1
COc1ccc(-c2nn(CCC(=O)O)c3nc(C)cc(C)c23)c(OC)c1	92.2	101.2	·	107.0

(next part)
SMILES	Sa growth 42C	Sa growth 42C second temp	HCMV UL50-53 inh	GIV Gai3 FP
Cc1cc(NC(C)C)n2nc(C)c(-c3ccc(F)cc3)c2n1	·	·	2.9	109.7
O=C1CCC(C(=O)O)C(Cc2ccccc2)C1 (stereo not given)	108.1	87.5	-11.1	102.9
C=CCn1c(SCC(=O)Nc2cc(OC)c(NC(=O)c3ccco3)cc2OC)nnc1-c1ccncc1	107.8	103.0	-7.7	105.5
Cc1cccc(N2C(=O)N(Cc3ccc(C(C)(C)C)cc3)c3ccccc3S2(=O)=O)c1	99.3	103.5	·	105.4
CC(Sc1nc2ccccc2c(=O)n1Cc1ccco1)C(=O)NCc1ccc2c(c1)OCO2 (stereo not given)	76.5	88.9	-8.9	·
Cc1cccc(NC(=O)CSc2nc(-c3cccc(C)c3)nc3c2Cc2c(CO)cnc(C)c2O3)c1	94.7	93.1	·	105.4
COc1cc(C2C(C(=O)OCC(C)C)=C(C)NC3=C2C(=O)CC(c2ccccc2)C3)ccc1OC(C)=O (stereo not given)	·	·	-20.2	102.9
O=C(Nc1sc2c(c1C(=O)NCc1ccco1)CCC2)c1cccs1	115.0	88.2	-13.9	103.4
O=C(/C=C/c1ccccc1)OCc1nc2ccccc2s1	101.8	87.2	-36.1	·
